Screens from PubChem.
MARV entry inh: inhibitors of Marburg virus binding or cell entry | Potency, µM (doses to about 37.8 µM), for inactives: top-dose activity change, negative = inhibition, usual class: inhibitors | Marburg virus pseudotyped entry inhibition, cell reporter; control for the full effect not named in the record; about a third of the inactives were read at about 46 µM | 300,000 tested, 1.8% active; active = well fitted inhibition curve with a large enough effect; inconclusive = small, poorly fitted or top-dose-only effect, or effect the other way; inactive = flat fitted curve, though single readings scatter; tested in HEK293 cells; about a fifth of its hits are not listed in these tables; note: % is set by controls: 0 for no effect and ±100 for the full control effect; luciferase read-out
2A StopGo: FMDV 2A StopGo reporter, luciferase signal; Potency, µM (highest dose often 57.9 µM), inactives show top-dose signal change, negative = less light; 410,000 tested, 1.2% active; human cells with a luciferase reporter of 2A StopGo recoding; control for the full effect not named in the record; active = well fitted falling curve with a large enough effect; inconclusive = small, poorly fitted or top-dose-only effect; inactive = no such curve, though single readings can be large or run the other way; tested in HEK293T cells; note: % is set by controls: 0 for no effect and ±100 for the full control effect; nearly all actives have a fitted effect of over 45% in size; luciferase light after 4 h
Cruzain inh Det: cruzain (T. cruzi) inhibition with detergent | P25779 | purified cruzain, Z-FR-AMC fluorescence, 0.01% Triton | Potency, µM, for the others: max response, negative = inhibition, usual class: inhibitors | 200,000 tested, 0.43% active | AID 1478;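 note: plate controls were neutral wells for no effect and buffer without enzyme for full effect; nearly all actives have a fitted effect of over 40% in size; top concentration of the series not given in the record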
Target sequence (P25779 123-467 limits assumed): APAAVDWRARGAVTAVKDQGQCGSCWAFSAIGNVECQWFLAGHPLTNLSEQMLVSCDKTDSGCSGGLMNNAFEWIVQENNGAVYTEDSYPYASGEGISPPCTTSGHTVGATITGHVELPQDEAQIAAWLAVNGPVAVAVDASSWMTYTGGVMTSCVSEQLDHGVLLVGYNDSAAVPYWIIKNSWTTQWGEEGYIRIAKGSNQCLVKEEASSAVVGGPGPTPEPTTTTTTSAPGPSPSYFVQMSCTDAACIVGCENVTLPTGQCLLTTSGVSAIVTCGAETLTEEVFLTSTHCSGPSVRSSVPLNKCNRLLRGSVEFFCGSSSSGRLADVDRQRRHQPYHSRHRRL
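Compounds were screened in titration against cruzain (1.5 nM) with 0.01% Triton X-100 to counter colloidal aggregation. Activity was the AMC fluorescence increase over 60 s after adding 2 uM Z-FR-AMC at pH 5.5.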
RE007 growth inh: less growth of the S. pombe RE007 Vpr strain | 360,000 tested, 0.21% active | S. pombe RE007 Vpr strain, BacTiter-Glo ATP luminescence, 24 h; control for the full effect not named in the record | Potency, µM (titrated, usually from 92.2 µM), without a hit: at the highest dose activity change, negative = less growth; active = well fitted falling curve with a large enough effect; inconclusive = small, poorly fitted or top-dose-only effect; inactive = no such curve, though single readings can be large or run the other way;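 note: % is set by controls: 0 for no effect and ±100 for the full control effect; nearly all actives have a fitted effect of over 50% in size; the assay follows cell death caused by Vpr and the record does not say whether a fall means rescue or toxicity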
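Fission yeast strain RE007, carrying one chromosomally integrated HIV-1 vpr copy, was seeded at OD 0.01 in PMG+AL medium with 23 nL pinned compound. After 24 h at 30 °C and 99% humidity, viability was read by BacTiter-Glo luminescence.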
LASV entry inh: Lassa virus entry inhibition; Lassa virus pseudotype entry inhibition, cell reporter; control for the full effect not named in the record; Potency, µM (highest dose often 37.9 µM), without a hit: at the highest dose activity change, negative = inhibition, actives largely listed as inhibitors; 300,000 tested, 1.2% active; AID 540256; active means well fitted inhibition curve with a large enough effect; inconclusive means small, poorly fitted or top-dose-only effect, or effect the other way; inactive means flat fitted curve, though single readings scatter; tested in HEK293 cells; note: % is set by controls: 0 for no effect and ±100 for the full control effect; nearly all actives have a fitted effect of over 50% in size; luciferase read-out
NS1 inh: inhibitors of influenza NS1 protein function. S. cerevisiae slowed by influenza A NS1, growth recovery by OD600. Potency, µM (doses to about 46.1 µM), for inactives: at the highest dose activity, positive = more growth. 270,000 tested, 0.4% active. AID 2326; active means well fitted rising curve with a large enough effect; inconclusive means small, poorly fitted or top-dose-only effect; inactive means no such curve, though single readings can be large or run the other way; note: nearly all actives have a fitted effect of over 50% in size
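Read-out: OD600 growth recovery of NS1-expressing budding yeast. Cells grown overnight at 30C in -URA glucose medium, washed, resuspended and diluted 1:100 in 2% galactose assay medium, pH 6.0. Same strain lacking NS1 served as positive control.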
Cruzain inh noDet: inhibitors of Trypanosoma cruzi cruzain without detergent; P25779; purified cruzain, Z-FR-AMC fluorescence, no detergent; Potency, µM, without a hit: max response, negative = inhibition, actives largely listed as inhibitors; 200,000 tested, 2.3% active;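 note: plate controls were enzyme without inhibitor for no effect and buffer without enzyme for full effect; nearly all actives have a fitted effect of over 40% in size; top concentration of the series not given in the record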
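Detergent-free condition (0.00005% Triton X-100) in acetate buffer pH 5.5 with DTT. 1.5 nM enzyme and compound were pre-mixed 15 min, then 2 uM Z-FR-AMC substrate added; reaction progress from fluorescence change between first and third reads (60 s).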
SARS PLpro yeast: SARS-CoV PLP inhibition in yeast | 330,000 tested, 0.19% active | S. cerevisiae expressing SARS-CoV PLpro, growth rescue; control for the full effect not named in the record | Potency, µM (highest dose often 32.9 µM), for the others: at the top dose activity, positive = growth rescue | AID 485353; active means well fitted rising curve with a large enough effect; inconclusive means small, poorly fitted or top-dose-only effect; inactive means no such curve, though single readings can be large or run the other way; note: 0% is about no effect; nearly all actives have a fitted effect of over 55% in size; growth read by luminescence after 48 h
The depositor's hits bear a star; ? = inconclusive; nt = not tested or not shown; & = joins results of further samples; [ ] = dose if it differs, or a comment. Unless noted, calls come from the whole dose curve; as a rule, active = well fitted curve in the direction sought with a large enough effect; inconclusive = small, poorly fitted or top-dose-only effect, or another doubt; inactive = no such curve, though single readings can be large; an effect the other way counts as inactive or inconclusive. Potency is the fitted concentration of half-maximal effect.

The line under a structure holds: MARV entry inh	2A StopGo	Cruzain inh Det	RE007 growth inh	LASV entry inh	NS1 inh	Cruzain inh noDet	SARS PLpro yeast
COc1ccc(-c2cc(-c3cc(OC)ccc3O)[nH]n2)cc1
  ?	27%	-10%	?	?	-142%	-17%	-21%
O=C(c1ccco1)c1cn[nH]c1-c1ccc(Cl)cc1O
  -1%	-18%	-4.6%	9%	12%	-7%	-10%	-5%
CCOC(=O)N1CCN(Cc2cn[nH]c2-c2cc3ccccc3o2)CC1
  nt	-14%	nt	-8%	nt	-3%	nt	1%
CCOC(=O)c1ccc(N2C(=O)c3n[nH]c(C)c3C2c2ccc(OC)cc2)cc1 (stereo not given)
  -17%	0%	-3.8%	26%	-15%	-65%	?	1%
Cc1nnc2sc(SCc3ccccc3Cl)nn2c1=O
  -3%[46.1 µM]	1%	nt	-7%	26%	nt	nt	-2%
Cn1c(=O)n(C)c2cc(CNCCc3ccccc3)ccc21
  -24%[46.1 µM]	-9%	1.8%	nt	-14%[46.1 µM]	nt	-11%	nt
CCN(C(=O)CSc1nc2ccc(O)cc2c(=O)n1-c1ccc(OC)c(OC)c1)C1CCS(=O)(=O)C1 (stereo not given)
  -1%[46.1 µM]	-13%	nt	-2%	-21%	nt	nt	-7%
CCCCOc1ccc(/C(O)=C2/C(=O)C(=O)N(CCCOC)C2c2ccncc2)cc1 (stereo not given)
  0%	10%	-5.5%	1%	-10%	-9%	4%	-2%
CCSc1nc(O)cc(=O)n1CC
  -8%[46.1 µM]	-2%	nt	-1%	21%[46.1 µM]	nt	nt	1%
O=C(O)Cc1sc(-c2ccc(C(=O)O)cc2)nc1-c1ccccc1
  ?	8%	nt	-19%	19%[46.1 µM]	5%	nt	1%
NCC(CP(=O)(O)O)c1ccc(Cl)cc1 (stereo not given)
  0%&0%&0%&-7%&0%	-2%	4.1%	nt	?	9%	-6%	nt
CCOc1ccc(S(=O)(=O)N2CCOCC2)cc1NC(=O)CN1C(=O)NC2(CCCC2)C1=O
  4%	27%	nt	17%	-14%	nt	nt	2%
Cc1cc2c(cc1C)C(c1ccccc1F)CC(=O)N2 (stereo not given)
  ?	-9%	nt	9%	-26%[46.1 µM]	-5%	nt	nt
O=C(c1cc(COc2ccc3ncccc3c2)on1)N1CCC[C@H]1CO
  -21%	-11%	nt	-14%	?	-15%	nt	4%
COCCO[C@H]1CC[C@@]2(C)C(=CCC3C2CC[C@@]2(C)C3CC[C@]2(C)O)C1 (stereo not given in full)
  -5%	?	nt	-1%	-9%	nt	nt	-2%
COc1nc(SCC(=O)Nc2ccccc2Cl)nc(N(C)C)n1
  ?	33%[activator]	nt	-1%	-1%[46.1 µM]	-32%	nt	6%
N[C@@H](Cc1ccccc1)c1nnc(SC/C=C/c2ccccc2)o1
  ?	-17%	nt	3%	3%	3%	nt	-6%
COc1ccc(Cn2c(=O)n(-c3ccc(OC)cc3)c(=O)c3c2c2cc(OC)ccc2n3C)cc1
  nt	-1%	2.2%	nt	28%[46.1 µM]	nt	-6%	nt
CN1C(=O)c2ccccc2N(C)C1c1cccs1 (stereo not given)
  -1%	-24%	0.2%	8%	16%	-4%	-5%	1%
CCOC(=O)c1c(NC(=O)/C=C/c2ccc(OCC)cc2)sc2c1CCC2
  nt	-23%	6.4%	nt	9%[46.1 µM]	nt	18%	nt

More compounds follow:
The line under a structure holds: MARV entry inh	2A StopGo	Cruzain inh Det	RE007 growth inh	LASV entry inh	NS1 inh	Cruzain inh noDet	SARS PLpro yeast
CCc1ccc(NC(=O)c2ccc(-n3cncn3)c([N+](=O)[O-])c2)cc1
  -7%	5%	nt	-9%	2%	nt	nt	nt
Cc1ccc(CSc2nnc3[nH]c(=O)cc(-c4ccccc4)n23)cc1
  nt	7%	-2.0%	nt	29%[46.1 µM]	nt	2%	nt
Cc1nn(-c2ccccc2Cl)c(Cl)c1/C=N/Nc1nc2ccccc2s1
  0.033µM*	0.0009µM*	-1.9%	4%	1.1µM*	-5%	13µM*	-10%
O=C(COc1ccccc1)NCC(c1ccco1)N1CCN(c2ccccc2F)CC1 (stereo not given)
  ?	-35%	nt	-1%	?	nt	nt	21%
O=C(NCc1ccccc1)C(c1cccnc1)N(C(=O)c1ccccn1)c1ccccc1F (stereo not given)
  -3%[46.1 µM]	-2%	nt	-1%	-9%[46.1 µM]	-2%	nt	10%
Cn1c(SCc2ccccc2F)nc2ccccc2c1=O
  ?	-30%	nt	8%	-8%	nt	nt	nt
O=C(Nc1ccc(S(=O)(=O)N2CCOCC2)cc1)c1ccc(S(=O)(=O)N2CCOCC2)cc1
  4%[46.1 µM]	-18%	nt	3%	28%[46.1 µM]	1%	nt	2%
CCc1c(C(=O)N2CCOCC2)csc1C
  7%	-13%	0.5%	1%	8%	-1%	-5%	1%
COc1ccc(Nc2nc3ccccc3n2C)cc1
  3%	0%	nt	-21%	9%	7%	nt	1%
COc1ccccc1-c1cc2nc(C)c(CCC(=O)NC(C)CCc3ccco3)c(C)n2n1 (stereo not given)
  1%	?	-8.1%	-12%	nt	3%	?	3%
C/C(CC(=O)Nc1ccc(N(C)C)cc1)=N\NC(=O)c1ccncc1
  4%[46.1 µM]	2%	nt	-10%	-1%	-10%	nt	0%
Cc1cccc(N2C(=O)NC(=O)/C(=C/c3ccc(N4CCOCC4)cc3)C2=O)c1
  27%[46.1 µM]	-6%	nt	14%	-27%	nt	nt	-4%
O=C(O)C1Cc2ccccc2CN1S(=O)(=O)/C=C/c1ccccc1 (stereo not given)
  7%[46.1 µM]	4%	nt	23%	15%[46.1 µM]	nt	nt	1%
CCCOc1ccc(-c2nc(C#N)c(N3CCC(C(N)=O)CC3)o2)cc1
  0%	9%	-6.4%	0%	-3%	3%	17%	1%
CN(CC(=O)Nc1cccc(F)c1)CC(=O)Nc1cccc(S(N)(=O)=O)c1
  nt	-2%	nt	1%	nt	-4%	nt	0%
CC(C)(C)NC(=O)C(c1ccco1)N(Cc1ccc(F)cc1)C(=O)c1snc(C(N)=O)c1N (stereo not given)
  -2%	11%	-6.2%	-8%	30%[14.3 µM]	-6%	4%	?
C=CCOc1c(Br)cc(/C=N/Nc2ccc(C(=O)O)cc2)cc1OCC
  6%	?	-14%	-3%	?	12%	?	-8%
CCN(C(=O)c1cn(C)c(=O)c2ccccc12)c1cccc(C)c1
  14%[46.1 µM]	-5%	5.2%	nt	?	nt	1%	nt
Cc1cc(/C=C2\Cc3ccccc3C2=O)c(C)n1-c1ccccc1
  ?	13µM*	-7.7%	4%	?	19%	16µM*	-18%
CCOc1ccccc1NC(=O)CCc1c(C)nc2c3cccnc3nn2c1C
  4%[46.1 µM]	-14%	-2.5%	nt	-28%[46.1 µM]	nt	-5%	nt

Other records
The line under a structure holds: MARV entry inh	2A StopGo	Cruzain inh Det	RE007 growth inh	LASV entry inh	NS1 inh	Cruzain inh noDet	SARS PLpro yeast
Cc1ccc(OCC(=O)Nc2c[nH]c(=O)[nH]c2=O)cc1C
  10%[46.1 µM]	2%	nt	-13%	2%[46.1 µM]	nt	nt	2%
COc1cc(Cl)c(C)cc1NC(=O)c1ccccc1NC(=O)CN1CCOCC1
  ?	?	nt	-5%	?	7%	nt	-2%
CCN1C(=O)NC(=O)/C(=C\c2cn(CC(=O)N3CCCCC3)c3ccccc23)C1=O
  -12%[46.1 µM]	-16%	nt	3%	-8%	21%	nt	2%
CCC(=O)Nc1ccc(C(=O)c2ccccc2)cc1
  24%	32%[activator]	0.5%	-13%	12%	-53%	14%	-13%
Nc1ccc2c(c1)COC2=O
  ?	59%[activator]	nt	11%	17%	nt	nt	1%
Cc1cccc(C)c1NC(=O)NN(C(=O)c1ccccc1)C(C)(C)C
  -2%	1%	-1.6%	5%	12%	-8%	14%	2.5µM*
Clc1ccc(C2=CC(c3ccco3)n3ncnc3N2)cc1 (stereo not given)
  -6%	-21%	8.8%	-22%	-2%	-51%	17%	2%
CC1=CC(=C2C(=O)c3ccccc3C2=O)C=C(C)N1Cc1ccco1
  ?	11%	-9.0%	-13%	-28%	-43%	-1%	-13%
CCCCOc1ccc(C(=O)N(Cc2ccco2)Cc2ccco2)cc1
  -1%[46.1 µM]	19%	-16%	nt	11%[46.1 µM]	nt	-3%	nt
C=CCNC(=O)/C(C#N)=C/c1cn(-c2ccccc2)nc1-c1cccs1
  22%	-17%	-9.3%	2%	1%	-4%	9%	-15%
CSCCC(NC(=O)c1ccccc1Br)C(=O)NNC(=O)c1csc(N2CCOCC2)n1 (stereo not given)
  5%[46.1 µM]	-5%	nt	-23%	26%	nt	nt	-5%
CCOC(=O)CSc1nc2cc3c(cc2c(=O)n1CCCC(=O)NCc1ccc2c(c1)OCO2)OCO3
  nt	-10%	0.2%	nt	17%[46.1 µM]	nt	11%	nt
COc1cccc(OC)c1NC(=O)Cc1nn(C)c(=O)c2ccccc12
  -1%	-14%	-3.4%	-4%	-2%	6%	2%	12%
Cc1c(CNCc2cccs2)c(C(=O)O)c(C)n1Cc1ccccc1
  0%	-17%	1.0%	-17%	-3%	13%	-8%	5%
COc1cccc(CNC(=O)c2ccc(NC3=NC4CS(=O)(=O)CC4S3)cc2)c1 (stereo not given)
  nt	6%	nt	-6%	nt	9%	nt	5%
Nc1ccccc1NC(=O)CCn1c(=S)[nH]c2ccccc2c1=O
  nt	0%	nt	-11%	nt	2%	nt	4%
O=C(CN(Cc1ccccc1Cl)C(=O)c1csnn1)NCCc1ccccc1
  -1%[46.1 µM]	-10%	nt	0%	-13%	-3%	nt	3%

Among those listed so far, these contain a tert-butyl group:
The line under a structure holds: MARV entry inh	2A StopGo	Cruzain inh Det	RE007 growth inh	LASV entry inh	NS1 inh	Cruzain inh noDet	SARS PLpro yeast
CC(C)(C)NC(=O)C(c1ccco1)N(Cc1ccc(F)cc1)C(=O)c1snc(C(N)=O)c1N (stereo not given)
  -2%	11%	-6.2%	-8%	30%[14.3 µM]	-6%	4%	?
Cc1cccc(C)c1NC(=O)NN(C(=O)c1ccccc1)C(C)(C)C
  -2%	1%	-1.6%	5%	12%	-8%	14%	2.5µM*
